Screening results as filed in PubChem.
AID504770: E. coli YBA685 growth inhibition, screen for V. cholerae RctB inhibitors; E. coli YBA685 rctB-dependent plasmid, OD600 growth, 3 h; stronger effect = lower value; z-score (concentration not given with the values); actives 0.27% (n = 130,000);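 active = z-score under -2 on both plates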;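 also: wells of about 30 µL received 100 nL stock; score is relative to mean and SD of the test wells; the first replicate is given; strong numbers were not always called active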
CapD inh: blocks the Bacillus anthracis CapD enzyme; purified CapD enzyme, fluorescence intensity read-out; stronger effect = lower value; some hits fall short of the stated cut; z-score (concentration not given with the values); actives 0.23% (n = 140,000);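 active = z-score under -4 in either of two replicates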;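 also: stock transfer was 100 nL into about 40 µL; score is relative to mean and spread of the plate; one replicate is shown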
An asterisk follows results filed as active; x = no result given.

SMILES	AID504770	CapD inh
CC(=O)c1c(C)oc2ccc(N(C(=O)c3ccncc3)S(=O)(=O)c3ccccc3)cc12	x	-0.88
CCc1c(/C(C)=N/NC(N)=O)oc2ccc(C)cc12	-0.15	x
O=C1c2ccc3c4c(ccc(c24)C(=O)N1c1ccc(O)cc1)C(=O)N(c1ccc(O)cc1)C3=O	x	-0.68
CC(=O)OC1=CCC2C3CC[C@@]4(C)CC(OC(C)=O)CCC4(C)C3C(OC(C)=O)CC12C (some centres undefined)	x	0.06
CN(C(=O)CC(=O)N(C)C1CCCCC1)C1CCCCC1	1.9	-0.095
CCS(=O)(=O)N1CCC(C(=O)NCc2ccc(OC)cc2)CC1	-0.05	0.31
O=C(Nc1ccc2c(c1)OCO2)c1ccc2c(c1)C(=O)N(C1CCCCC1)C2=O	0.45	0.01
O=C(c1ccccc1)C1CN2CCC1CC2 (centres undefined)	-1.9	-0.095
CCc1ccc(C(=O)C(C)Sc2nncs2)cc1 (centres undefined)	-1.1	x
CCOc1nnc(-c2ccc(C)cc2)c2ccccc12	x	-0.65
Cc1ccc(CSc2nc(NC(C)C)c(C#N)c(-c3ccccc3)n2)cc1	x	0.24
Cc1cc(C)cc(Oc2nc3ccccc3cc2-c2cccc(C(F)(F)F)c2)c1	x	0.005
O=C(O)/C=C/C(=O)NCc1csc2ccccc12	-1.1	0.13
O=C(CSc1nc2ccccc2s1)Nc1ccccc1Cl	x	-1.2
NNc1ccc2c(C(F)(F)F)cc(C(F)(F)F)nc2n1	-0.85	1.2
CCOc1ccc(COC(=O)N2CCCC2C(=O)OCc2ccc([N+](=O)[O-])cc2)cc1OC (centres undefined)	x	-0.3
O=C(CSc1nc(-c2cccs2)nc2ccccc12)N1CCNC1=O	-0.7	x
CC1(C)CC(=O)C2=C(C1)Nc1ccc3ccccc3c1C2c1cc([N+](=O)[O-])ccc1Cl (centres undefined)	x	-0.91
O=C(O)CNC(=O)c1cccc(Br)c1	-0.45	x
CCOC(=O)N1CCN(C(=O)CCn2nc(-c3ccc(Cl)cc3)ccc2=O)CC1	-0.35	0.5
CN(Cc1ccccc1)C(=O)CSc1ncnc2ccccc12	-0.6	-1.2
CC1(C)CC(NC2CCCCC2)CC(C)(C)N1	-0.45	0.37
CN(C)C1=NC(C(F)(F)F)(C(F)(F)F)N=C(c2ccco2)O1	x	-0.24
O=C(Nc1cc(Cl)ccc1Oc1ccc(Br)c2ccccc12)c1cc(Cl)cc(Cl)c1O	x	2.1
O=C(CC1Sc2ccccc2NC1=O)OCc1nc2scc(-c3ccco3)c2c(=O)[nH]1 (centres undefined)	0	x

Another view of part of the listing above.
Every second line gives: AID504770, CapD inh
- CCOC(=O)N1CCN(C(=O)CCn2nc(-c3ccc(Cl)cc3)ccc2=O)CC1
  -0.35, 0.5
- O=C(CC1Sc2ccccc2NC1=O)OCc1nc2scc(-c3ccco3)c2c(=O)[nH]1 (centres undefined)
  0, x
- Cc1ccc(CSc2nc(NC(C)C)c(C#N)c(-c3ccccc3)n2)cc1
  x, 0.24
- O=C1c2ccc3c4c(ccc(c24)C(=O)N1c1ccc(O)cc1)C(=O)N(c1ccc(O)cc1)C3=O
  x, -0.68

Other records follow.
SMILES	AID504770	CapD inh
CC1(C)CC(=O)C(CC(=O)NC(=O)NCc2ccccc2)=C(O)C1	-1.1	x
CCCNC(=O)CCc1c(C)n(CC)c2cc(-c3ccccc3OC)nn2c1=O	-0.15	55
NCCCC(=O)N1c2ccccc2Sc2ccccc21	-0.5	-0.11
CN(C)/C=C1\CCCc2ccccc2C1=O	0.2	-4.1*
CC1CCCN(Cn2nnc3ccccc3c2=O)C1 (centres undefined)	0.1	x
Cc1nn(-c2ccc(F)cc2)c(Cl)c1C(=O)N1CCN(c2ncccn2)CC1	-0.25	x
Cc1cccc(C(=O)N2N=C(C3CCCCC3)CC2(O)C(F)(F)F)c1 (centres undefined)	x	0.38
CCOC(=O)C1=C(c2ccccc2)N=c2s/c(=C\c3cccnc3)c(=O)n2C1c1ccc2c(c1)OCO2 (centres undefined)	x	0.69
CCOC(=O)c1ccc(N=C2N=C(N)c3ccccc32)cc1	-0.9	x
CC1CN(C(=S)c2ccccc2)CC(C)O1 (centres undefined)	0.45	0.17
CC(=O)[C@@]1(O)CC[C@H]2[C@@H]3C[C@H](C)C4=CC(=O)C=C[C@]4(C)[C@@]3(F)[C@@H](O)C[C@@]21C	x	-0.51
c1ccc2oc(SCc3nc4c5c6c(sc5ncn4n3)CCCCC6)nc2c1	x	-0.42
CCC(C)NC(=O)Cn1nc(C)cc1-c1ccco1 (centres undefined)	-0.75	-0.36
COc1ccc(F)cc1CN1CCN(CC(=O)c2c(C)[nH]c3ccccc23)CC1	-0.6	x
O=C1COc2ccc(C(=O)COC(=O)c3cc(S(=O)(=O)NCc4ccccc4)ccc3O)cc2N1	0.25	x
CC(C)Sc1[nH]c2ccccc2c1N=Nc1c(Cl)cc(Cl)cc1Cl	x	-1.5
O=C(CCC1CCCC1)c1c(O)c2ccccc2oc1=O	2	-0.11
CCNCC(=O)Nc1nnc(-c2ccccc2)o1	-0.2	x
CCSc1n[nH]c(-c2cccs2)n1	-0.3	x
CC(NS(=O)(=O)c1ccccc1)c1nc(-c2ccccc2)no1 (centres undefined)	1.7	-0.53
O=C(CNC(=O)C(c1ccccc1)c1ccccc1)NC1CCCCC1	0.15	0.3
COc1ccccc1CNC(=O)c1ccc(-n2cc(-c3ccncc3)cn2)cc1	x	0.34
CCOC(=O)Cc1c(SC)c2ccccc2n1C	2	-0.1
COc1ccc(CCNC(=O)C2CCN(C(=O)N(C)C)CC2)cc1OC	1.6	-0.005
Cc1noc(/C=C/c2cccs2)c1S(=O)(=O)N1CCCC(C(=O)NCC2CCCO2)C1 (centres undefined)	1.2	0.74

Copied from the list.
`O=C(CCC1CCCC1)c1c(O)c2ccccc2oc1=O` in AID504770 is entered as 2
`NNc1ccc2c(C(F)(F)F)cc(C(F)(F)F)nc2n1` in CapD inh is entered as 1.2
`Cc1ccc(CSc2nc(NC(C)C)c(C#N)c(-c3ccccc3)n2)cc1` in CapD inh is entered as 0.24

The main list resumes, repeating the five entries before the break.
SMILES	AID504770	CapD inh
O=C(CNC(=O)C(c1ccccc1)c1ccccc1)NC1CCCCC1	0.15	0.3
COc1ccccc1CNC(=O)c1ccc(-n2cc(-c3ccncc3)cn2)cc1	x	0.34
CCOC(=O)Cc1c(SC)c2ccccc2n1C	2	-0.1
COc1ccc(CCNC(=O)C2CCN(C(=O)N(C)C)CC2)cc1OC	1.6	-0.005
Cc1noc(/C=C/c2cccs2)c1S(=O)(=O)N1CCCC(C(=O)NCC2CCCO2)C1 (centres undefined)	1.2	0.74
Clc1ccc(-c2n[nH]c3c2CCCC3)cc1	0.2	-0.29
Cc1ccc(OC(=O)CCC(=O)Nc2cccc(C#N)c2)cc1	-0.15	0.45
Cc1nnc2sc(-c3csc4c3CCCC4)nn12	-1.8	-0.025
Cc1ccc(C(=O)CSc2nnc3nc(C)cc(C)n23)cc1	0.5	x
O=C(Nc1ccccc1C(=O)O)c1ccc(CN2CCOCC2)cc1	0.35	0.27
O=c1cc(C(F)(F)F)[nH]c2c(C(F)(F)F)cccc12	x	79
COC(=O)c1c(-c2c(Cl)cccc2Cl)noc1NC(=O)NCc1cccs1	0.7	0.55
N#CCc1ccc(OS(=O)(=O)c2cc(Cl)cc(Cl)c2)cc1	x	0.25
CCOc1cc(C(c2c(C)[nH]n(-c3ccccc3)c2=O)c2c(C)[nH]n(-c3ccccc3)c2=O)ccc1OCc1ccccc1	x	-0.49
CCOc1cc(C(c2c(C)[nH]n(-c3ccccc3)c2=O)c2c(C)[nH]n(-c3ccccc3)c2=O)ccc1OC(=O)c1ccccc1Cl	x	-0.69
O=C(O)c1cc2sccc2s1	-0.6	-0.2
Cc1ccc(NS(C)(=O)=O)c(C)c1	-0.7	0.44
COc1ccc(/C=C2\SC(=Nc3ccccc3Cl)NC2=O)c(OC)c1	x	-1.2
CCOC(=O)c1nc(C)sc1-c1ccn[nH]1	2	2.8
CO/N=C/c1cc([N+](=O)[O-])ccc1Sc1c(Cl)cccc1Cl	x	11
COc1ccc(C(=O)COC(=O)c2ccc(N3C(=O)C4CC=CCC4C3=O)cc2)cc1[N+](=O)[O-] (centres undefined)	x	0.24
O=C(CSc1nnc(COc2ccccc2)o1)NC1CCCCC1	-0.35	0.51
CC1=NN(C(=O)CC#N)C(O)(c2ccccc2)C1 (centres undefined)	0.75	-0.7
O=C(NO)c1nc[nH]c1C(=O)NO	-0.85	-0.25
CC(=O)N1CCC(=O)N(C(=O)c2ccccc2)c2ccccc21	x	0.56
CN(C)/C=C1/C=C(c2ccccc2)OC1=S	2.9	-0.54
CCn1c(CCNC(=O)C2CCCO2)nnc1SC (centres undefined)	0.8	x
Cn1nc(C(=O)N2CCOCC2)cc1C(=O)N1CCOCC1	-0.2	-0.06
O=C(Cc1ccc2c(c1)CCCC2)N1CCN(c2ncccn2)CC1	-0.35	x
CC1CCN(C(=O)Cn2cc(C(=O)C3CC3)c3ccccc32)CC1	0.25	0.35
Remaining list, next part
SMILES	AID504770	CapD inh
O=C(CBr)c1ccc2ccccc2c1	-1.8	3.9
O=C(NCc1ccco1)N(Cc1ccc2c(c1)OCO2)C1CCN(Cc2ccccc2)CC1	-1.2	-0.29
CN(C)c1ccc(CCOC(=O)N2CCC(O)(Cc3ccccc3)CC2)cc1	x	-0.27
O=C(COCCn1cc(-c2ccc(Cl)cc2)cn1)NCc1cccnc1	x	-0.52
Cc1cc(C)nc(N2CCN(C(=O)CCC(=O)N3CCOCC3)CC2)n1	x	1.6
CC(NS(=O)(=O)c1ccc(C(C)(C)C)cc1)C1C2CC3CC(C2)CC1C3 (centres undefined)	-0.4	-0.45
Cn1c2ccc(F)cc2c2n[nH]c(=S)nc21	1	0.29
CCc1ccc(NC(=O)N2CCC(N(C)C(C)C)CC2)cc1	-0.2	23
O=C(CCN1C(=O)/C(=C/c2ccc3c(c2)OCO3)SC1=S)Nc1nc(-c2ccccc2)cs1	x	0.03
COc1c(C(=O)NCC2CCCCC2O)cnc2c1c(C)nn2C (centres undefined)	x	-0.89
O=C(c1ccccc1)c1cc2cc(Br)cc(Br)c2o1	x	-0.21
O=C(N/N=C/c1ccc(N2CCOCC2)cc1)c1cccs1	-0.1	x
Cc1ccc2c(CSCc3cc(=O)n4c(C)csc4n3)cc(=O)oc2c1	0	x
CC1O[C@]2(C)OC1[C@]1(C)OC(C)[C@H]2O1 (some centres undefined)	1.1	-0.14
CCOC(=O)C1=C(C)N=c2s/c(=C/c3ccc(N4CCOCC4)o3)c(=O)n2C1c1ccc(OC)c(Br)c1 (centres undefined)	x	-1.3
COc1ccc(OC)c(NC(=O)CCN2CCC(C)CC2)c1	-0.2	x
COC(=O)/C(=C\Nc1ccc(Sc2ccc(Cl)cc2)nc1)NC(=O)c1ccccc1	0.5	2.4
O=C(COc1ccccc1)N1N=C2CCCCC2C1(O)C(F)(F)F (centres undefined)	x	-0.72
CN(C)/C=C1/N=C(c2ccccc2)c2cc(Cl)ccc2N(C)C1=O	x	0.92
Cc1cc(/N=c2/c3nnnn3c3ccccc3n2C2(O)C(=O)NC(=O)NC2=O)n(-c2ccccc2)n1	-0.4	x
Cc1ccccc1C(=O)OC(C)CN1CCCCC1 (centres undefined)	-0.45	x
CCC/C(O)=C1/C(=O)CC(c2ccccc2)CC1=NC(C)C(=O)O (centres undefined)	1.5	x
CN(CCOc1ccc(Cl)cc1)CN1C(=O)C2CC=CCC2C1=O (centres undefined)	-0.8	x
CSc1ccccc1C(=O)Nc1cccc(C(C)O)c1 (centres undefined)	-0.55	-0.33
CC(=O)OC1(c2ccccc2)CCN(C)C(C)C1C (centres undefined)	x	0.4
The results go on:
SMILES	AID504770	CapD inh
CC(NS(=O)(=O)c1ccc(Cl)cc1)C(=O)O (centres undefined)	0.05	-0.065
CC1Oc2ccc([N+](=O)[O-])cc2C2OC(c3ccccc3)(c3ccccc3)c3ccccc3N12 (centres undefined)	x	-0.19
COc1ccc(SCC(=O)NCc2ccc3c(c2)OCO3)cc1	0.65	0.88
O=C(N/N=C/c1ccc(O)cc1)c1ccccc1	-0.5	x
CCc1ccnc(NC(=O)c2ccccc2)c1	-0.2	0.83
CCc1noc(C)c1C(=O)NCc1ccc2c(c1)OCO2	-0.45	x
Cc1csc2c(N(C)CCO)ncnc12	-0.85	-1.1
CCCCNc1ccc2nnc(CCNC(=O)c3ccccc3)n2n1	-0.3	x
CCOC(=O)N1CCC(NC(=O)C2CCCN2C(=O)OCc2ccccc2)CC1 (centres undefined)	-0.55	0.58
CCOc1ccc(NC2=NCCC2)cc1	-0.5	0.62
CC(Sc1nnc(C(C)(C)C)n1N)C(=O)Nc1ccc(Oc2ccccc2)cc1 (centres undefined)	-0.45	x
N#CC1=C(N)C(C#N)(C#N)[C@@H](c2ccccc2Cl)[C@@H]2CCCC=C12	x	1.7
CCC(C)(C)c1ccc(OCCCC(=O)Nc2ccc(Cl)c(N3C(=O)C4C5C=CC(C5)C4C3=O)c2)c(C(C)(C)CC)c1 (centres undefined)	x	0.08
Cc1ccc(C(=O)CC(SCc2ccco2)c2ccc([N+](=O)[O-])cc2)cc1 (centres undefined)	x	-0.53
Cc1nn(S(=O)(=O)c2ccc(Cl)cc2)cc1-c1ccccc1	-0.5	-0.33
Cc1ccc(-n2ncc3c(=O)[nH]c(SCC(=O)c4ccccc4)nc32)cc1	2.3	-0.24
CN(C)c1ccc(C2Nc3ccccc3C(=O)N2CCN2CCNC2=O)cc1 (centres undefined)	0.75	3.6
O=c1[nH]n(-c2ccc(S(=O)(=O)N3CCc4ccccc43)cc2)c(=O)c2ccccc12	-0.95	-0.39
O=S(=O)(NCCc1ccc(Cl)cc1)c1cccc2nonc12	x	-0.58
C=CCn1cc(C=C2C(=O)OC3(CCCC3)OC2=O)c2ccccc21	2	-0.84
CC(C)(C)CNC(=S)NN	0.4	-0.59
CN(C/C(O)=C(\C#N)c1nc2ccccc2s1)C1CCCCC1	-0.35	0.6
